# S aureus helic: inhibitors of S. aureus replicative helicase, primary screen, biochemical, fluorescence unwinding readout; purified S. aureus helicase, fluorescence unwinding assay; about half of the hits fall short of the stated cut; AID 485395, 2010; replicative DNA helicase (DnaC/DnaB), Staphylococcus aureus; hit rate 0.05% among 120,000; inhibition, %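 (tested at about 80 µM)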;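 active = both duplicates at 50% or more, or one of them with a favoured structure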;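 note: 0% = mean of negative control wells and 100% = mean of positive control wells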
# MgrA DNA FP: S. aureus MgrA activity modulators, primary screen, biochemical, S. aureus Newman, fluorescence polarization | hit rate 0.13% among 84,000 | MgrA-DNA binding | AID 602314, 2012 | inhibition, %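 (about 10 µg/mL by stock and volumes)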;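 active = above 50% in either of two replicates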;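 note: 0% = protein plus DNA without compound and 100% = DNA alone without protein; higher means less MgrA bound to DNA so lower polarization; one replicate is shown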
# An asterisk follows results filed as active; · = not tested or not shown. This is a subset. The share of hits here may be higher or lower than overall.
# Every second line gives: S aureus helic | MgrA DNA FP
COc1ccc(/C=C2\SC(=S)N(CC(=O)Nc3ccccc3)C2=O)cc1
→ 6.0 | 2.8
CCCN1CCc2c(C)c(C#N)c3nc4ccccc4n3c21
→ 6.0 | ·
NC(=O)CCSc1nnc(SCC(=O)c2ccccc2)s1
→ 11.0 | ·
O=S(=O)(c1ccc2c(c1)OCCO2)N1CCCCC1c1cccnc1 (stereo unspecified)
→ · | 57.8*
O=C(O)c1ccccc1C(=O)N1CCCCC1
→ 23.0 | ·
O=C(Nc1ccccc1C(F)(F)F)N1CCOc2ccccc21
→ 23.0 | ·
COc1cc(OC)c(C2=NOC(C(=O)NCC3CCCO3)C2)cc1Cl (stereo unspecified)
→ 4.0 | -2.0
Fc1ccc(-n2nc(C(F)(F)F)cc2-c2cccs2)cc1
→ · | 1.2
Cc1cc(C(=O)COc2ccccc2C(N)=O)c(C)n1C
→ 9.0 | ·
O=C(CN1C(=O)C2CC=CCC2C1=O)NCC(F)(F)F (stereo unspecified)
→ -7.0 | ·
CC(C)Cn1c(-c2ccccc2)nc2ccccc21
→ -10.0 | ·
CCOc1cc(/C=C2/C(=O)ON=C2C)ccc1OC(=O)c1cccs1
→ 3.0 | 2.0
Cc1cc2cc(CNC(=O)c3cc4ccccc4oc3=O)ccc2n1C
→ 2.0 | ·
Cc1ccccc1OCCSc1nc2ccccc2n1CCC(=O)O
→ · | -1.5
Cc1ccc2nc(SCC(=O)NCCSCc3ccco3)[nH]c2c1
→ · | -2.8
CCCn1c(SCC(=O)N2c3ccccc3CC2C)nc2ccccc21 (stereo unspecified)
→ -5.0 | ·
Cc1nc(NC(=O)CSc2ccccc2)sc1-c1ccccc1
→ 0.0 | 0.6
O=C(COC(=O)c1ccc(CN2CCCC2=O)cc1)c1ccc2c(c1)OCCO2
→ 12.0 | ·
Cc1cc(=O)[nH]c(N/N=C/c2ccc(OC(=O)c3cccnc3)cc2)n1
→ -4.0 | ·
O=C(O)C(c1ccccc1)N1C(=O)/C(=C\c2ccco2)SC1=S (stereo unspecified)
→ 7.0 | ·
Cc1cc(C)nc(/N=C(/N)N(C)C2CCCCC2)n1
→ 3.0 | -2.2
O=C(N/C(=C\c1ccccc1Cl)C(=O)N1CCOCC1)c1ccccc1
→ -19.0 | -1.9
O=C(CC1OC(=O)c2ccccc21)c1ccc(-n2ccnc2)cc1 (stereo unspecified)
→ · | 0.1
O=C(O)CCCc1cc2cc(Br)ccc2o1
→ 9.0 | -2.7
CCC(=O)c1ccc(-c2ccccc2F)cc1
→ · | -2.9
CCCC(=O)N1CCN(c2ccc(NC(=O)c3cc(OC)c(OC)c(OC)c3)cc2Cl)CC1
→ 9.0 | 2.7
COc1ccccc1/C=C1/SC(=O)N(CN2CC(C)OC(C)C2)C1=O (stereo unspecified)
→ 11.0 | 7.4
CC(=O)N1c2ccccc2CC1C (stereo unspecified)
→ -10.0 | ·
C=CCn1c(=N)n(CCOc2ccccc2Cl)c2ccccc21
→ -31.0 | ·
O=C(O)CN(CC(=O)Nc1cccnc1)Cc1ccccc1
→ -32.0 | ·
Cc1nnc(NC(=O)c2ccc(S(=O)(=O)N(CC(C)C)CC(C)C)cc2)o1
→ 4.0 | ·
CCC(=O)N1CCc2ccccc21
→ -11.0 | ·
O=C1c2ccccc2C(=O)N1c1nccs1
→ -8.0 | 0.3
Cc1cc(S(=O)(=O)NCc2c(N(C)C)cccc2N(C)C)c(Cl)cc1Cl
→ · | 0.9
NC(=O)CSc1nnnn1C1CCCCC1
→ 7.0 | -1.2
COc1cc2c(cc1NS(=O)(=O)c1ccc(N3CCCC3=O)cc1)oc1ccccc12
→ 0.0 | -2.1
Cc1ccccc1C(=O)c1c[nH]c(C(=O)NCc2ccccc2)c1
→ · | -2.2
Cc1cccc(COc2ccc3c(C)cc(=O)oc3c2)c1
→ 8.0 | -2.0
CCn1c(C)csc1=NC(=O)c1ccccc1
→ -3.0 | ·
N#CC(=Nc1cccnc1)C1=C(O)c2ccccc2C1=O
→ · | -1.1
C(=NN1CCN(C2c3ccccc3-c3ccccc32)CC1)c1ccco1
→ 23.0 | -0.3
Cc1cc(C(F)(F)F)n(-c2nc(CCl)cs2)n1
→ · | -3.2
CN(C)c1ccc(C2Nc3cc(Cl)ccc3O2)cc1 (stereo unspecified)
→ · | -2.2
CCn1c(C(C)(C)C)nc2ccccc21
→ 7.0 | 0.7
C=CCn1cc(C(=O)N(C)CCCC)c(=O)c2cc(S(=O)(=O)N(CC)CC)ccc21
→ -1.0 | ·
COc1ccc(CN2CCCCCC2)cc1
→ -4.0 | -0.8
CCOC(=O)c1cc(C)nn1Cc1ccc(Cl)cc1
→ -9.0 | ·
O=c1oc2ccccc2cc1-c1csc(NN=C2CCCC2)n1
→ 20.0 | ·
Cc1ccccc1-c1nsc(SCC(=O)N2CCCCC2)n1
→ 5.0 | ·
CC(=O)c1cc([N+](=O)[O-])c(SCCO)s1
→ · | 1.8
COc1cc(NC(=O)CC(CC(=O)O)c2ccc(C(F)(F)F)cc2)cc(OC)c1 (stereo unspecified)
→ · | 1.8
CN1C(=O)C(=C(C#N)C#N)c2cc(Br)ccc21
→ -11.0 | 2.1
COC(=O)C(C)Oc1ccc2c(c1)oc(=O)c1ccccc12 (stereo unspecified)
→ -12.0 | 1.2
CS(=O)(=O)CC(=O)c1ccc(Cl)c(Cl)c1
→ · | -0.9
COc1cc(C)c(S(=O)(=O)N2CCN(c3cccc(Cl)c3)CC2)cc1C
→ -10.0 | ·
O=C(CSC1=NCCc2ccccc21)c1ccc(-c2ccccc2)cc1
→ · | 3.6
N#C/C(=C\c1ccco1)S(=O)(=O)c1ccc(Cl)cc1
→ 4.0 | 12.7
O=C(O)CCC(=O)N1CCC(O)(c2ccc3c(c2)OCO3)CC1
→ 2.0 | -3.6
CC(=O)Oc1ccccc1C(C)=O
→ · | -0.6
Cc1ccc(Oc2ncccc2NC(=O)c2ccc(Cl)cc2Cl)c2c1CCC2
→ · | -0.7

# Following part:
# Every second line gives: S aureus helic | MgrA DNA FP
Cc1ccc(NC(=O)C2=C(C(=O)O)CCCC2)cc1Br
→ 9.0 | 0.2
Cc1noc(C)c1-c1nc(CSc2ccccn2)no1
→ · | 1.8
CCC(C)Sc1nnc(Cn2c(=O)sc3ccccc32)n1-c1ccc(OC)cc1 (stereo unspecified)
→ 6.0 | ·
O=C(OCc1cc(=O)n2ccccc2n1)c1ccc(Cl)c(S(=O)(=O)N2CCCC2)c1
→ -9.0 | ·
CCCc1cc(=O)[nH]c(SC(C)C(=O)NCc2ccccc2)n1 (stereo unspecified)
→ -6.0 | ·
CCOc1ccc(N2C(=O)NC(=O)/C(=C\c3ccc(OCC(=O)OC)c(OC)c3)C2=O)cc1
→ · | 0.5
C=CCOC(=O)OCn1c(=O)sc2ccccc21
→ 20.0 | 4.8
Nn1c(-c2ccccc2)nc2ccccc2c1=O
→ -12.0 | -14.1
COc1cc(CN(C)Cn2cnc3ccccc32)ccc1OC(F)F
→ 3.0 | ·
Oc1ccc(O)c(Cc2nc3ccccc3s2)c1
→ -16.0 | ·
Cc1ccccc1-n1cnnc1SCC(=O)Nc1ccc(S(=O)(=O)N2CCCC2)cc1
→ -10.0 | ·
O=C(C1CCN(S(=O)(=O)c2cccs2)CC1)N(c1ccccn1)C1CCCCC1
→ -2.0 | ·
Cc1cc(C(=O)OCC(=O)c2ccc(Br)s2)no1
→ -8.0 | ·
c1cn(-c2ccc(-c3nn[nH]n3)cc2)cn1
→ · | 0.0
Cc1cc(F)ccc1NC(=O)CCc1nnc2ccc(N3CCC4(CC3)OCCO4)nn12
→ -25.0 | ·

# A second format for part of the listing above:
structure	S aureus helic	MgrA DNA FP
Cc1ccccc1-n1cnnc1SCC(=O)Nc1ccc(S(=O)(=O)N2CCCC2)cc1	-10.0	·
O=C(C1CCN(S(=O)(=O)c2cccs2)CC1)N(c1ccccn1)C1CCCCC1	-2.0	·

# One compound at a time, as listed above. Screens in order: S aureus helic | MgrA DNA FP
# CCCN1CCc2c(C)c(C#N)c3nc4ccccc4n3c21 in the list: 6.0 | ·
# Cc1cc(C(=O)OCC(=O)c2ccc(Br)s2)no1 in the list: -8.0 | ·

# (listing goes on)
# Every second line gives: S aureus helic | MgrA DNA FP
CCN1CCSc2ccc(C(=O)NC(C)C)cc21
→ -3.0 | -0.6
Cc1ccc(S(=O)(=O)N2CCCCC2C(=O)N2CCCC3CCCCC32)cc1 (stereo unspecified)
→ -11.0 | -3.9
CCOC(=O)c1nccn1CC(=O)N(C)c1ccccc1
→ 4.0 | 2.9
COc1ccccc1NC(=O)C1c2cc(OC)c(OC)cc2C(=O)N(C)C1c1cccnc1 (stereo unspecified)
→ 7.0 | ·
CC1(C(=O)NC2CCCC2)CCC(=O)N1Cc1ccccc1 (stereo unspecified)
→ -9.0 | ·
O=C(O)CCn1cnc2ccccc2c1=O
→ 4.0 | -8.6
Cc1noc(C)c1-c1nc(CSCc2ccc(Cl)cc2)no1
→ · | -1.9
Cc1ccc2[nH]c(=O)c3cc(C(=O)O)sc3c2c1
→ 10.0 | ·
O=C1CS(=O)(=O)C(c2ccccn2)N1c1ccc(C(F)(F)F)cc1 (stereo unspecified)
→ · | 3.5
Cc1noc(C)c1C(=O)NNc1ccccc1C(F)(F)F
→ -1.0 | ·
CN1CCC(N(C)C(=O)c2cccc(S(=O)(=O)N3CCN(c4ccccc4)CC3)c2)CC1
→ -13.0 | ·
COc1ccc(NS(=O)(=O)Cc2ccccc2Cl)cn1
→ 10.0 | ·
C=CCn1c(=O)/c(=C/c2ccc(C)o2)s/c1=C(/C#N)C(=O)c1ccccc1
→ -305.0 | ·
CC1=C(C(=O)Nc2ccccn2)C(c2cccc(Cl)c2Cl)C2=C(CCCC2=O)N1 (stereo unspecified)
→ 11.0 | ·
COc1ccc(C(=O)ON2C(=O)CCC2=O)cc1
→ 3.0 | ·
CCOC(=O)c1c[nH]c2nc(C)ccc2c1=O
→ -24.0 | ·
c1cncc(-c2csc(-c3cccnc3)n2)c1
→ 4.0 | ·
O=C1CCCC2=C1C(c1ccc(Cl)cc1)N=C(Nc1nc3ccccc3o1)N2 (stereo unspecified)
→ 8.0 | 1.5
NC(=O)c1ccccc1NC(=O)COCC(=O)O
→ 14.0 | -6.8
Cc1nn(-c2ccc(Cl)cc2)c2sc(C(=O)N3C(C)CCCC3C)cc12 (stereo unspecified)
→ 10.0 | ·
CCC(C)NC(=O)c1cccc2c1C(=O)N(CC1CCCO1)C2 (stereo unspecified)
→ -19.0 | -0.3
Cc1cc(-c2ccc(S(=O)(=O)N3CCC4(CC3)OCCO4)s2)n[nH]1
→ 9.0 | ·
CC1(C)C2CCC1C(O)C2O (stereo unspecified)
→ 19.0 | ·
O=C(OCCN1C(=O)c2ccccc2C1=O)c1cccs1
→ 5.0 | 0.1
O=C(CN1c2cccc3cccc(c23)S1(=O)=O)NC1CC1
→ -10.0 | 1.8
Cc1ccc(SCc2cc(=O)oc3cc(O)ccc23)cc1
→ · | -2.4
COC(=O)C(Cc1ccccc1)NC(=O)C1CC(=O)N(c2cccc(C)c2C)C1 (stereo unspecified)
→ -5.0 | ·
Cc1ccc(OCCn2cccc2/C=C2\C(=N)N3N=C(N4CCCC4)SC3=NC2=O)c(C)c1
→ -4.0 | ·
CC1CCN(c2cc(N3CCC4(CC3)OCCO4)c3noc4c3c2C(=O)c2ccccc2-4)CC1
→ -122.0 | ·
Clc1cc2c(cc1C=Nc1ccc(N3CCOCC3)cc1)OCO2
→ 4.0 | -0.8
CCn1cnc2c1c(=O)n(CC(=O)Nc1cccc(OC)c1)c(=O)n2Cc1ccccc1
→ -15.0 | ·
C=CCn1c2ccccc2c2nnc(SCC(=O)NC(C)c3ccccc3)nc21 (stereo unspecified)
→ 18.0 | ·
CCc1ccc(-c2n[nH]c(=O)c3ccccc23)cc1
→ -45.0 | ·
Cn1c(=NC(=O)/C=C/c2cccs2)sc2cc(Cl)ccc21
→ -9.0 | ·
C=CCOc1ccc(CNCc2cccnc2)cc1OC
→ 44.0 | ·
Oc1c(Cl)c(Cl)c(Cl)c2ccccc12
→ · | -5.0
O=C(CC1OC(=O)c2ccccc21)Nc1ccccc1N1CCOCC1 (stereo unspecified)
→ -18.0 | ·
Cc1nc2ccccc2cc1OCc1ccccc1
→ · | -1.6
Cc1ccc(OC2CCS(=O)(=O)C2)cc1 (stereo unspecified)
→ 5.0 | ·
O=C(COC(=O)/C=C/c1ccc(Br)o1)Nc1ccc2[nH]c(=O)[nH]c2c1
→ 12.0 | ·
CC(C)N(Cc1nc(-c2ccccc2)no1)C(=O)C(C)(C)C
→ 10.0 | 1.1
Cc1cc(C)cc(-c2nnc(SC(C)c3nc4ccccc4c(=O)[nH]3)o2)c1 (stereo unspecified)
→ 2.0 | ·
COc1ccc(-c2noc(COC(=O)/C=C/c3ccc(OC(F)F)cc3)n2)c(OC)c1
→ 14.0 | ·
O=C(c1cccnc1)n1nc(NCc2ccccc2)nc1NCc1ccccc1
→ -19.0 | 3.1
CC1=C(C(=O)Nc2ccccc2F)C(c2ccsc2)C2=C(CC(C)(C)CC2=O)N1 (stereo unspecified)
→ 6.0 | 1.6
CC1=C(C(=O)Nc2ccccc2)C(CC(C)C)n2nc(SCc3cccc(C)c3)nc2N1 (stereo unspecified)
→ 16.0 | 1.2
CC(C(=O)NC1CCCC1)N1CCN(c2ccccn2)CC1 (stereo unspecified)
→ 17.0 | ·
CC(C)CCOc1cccc(OCC(=O)NCC(=O)O)c1
→ -8.0 | ·
O=C(O)c1cn(C2CC2)c2cc(N3CCN(C(=S)S)CC3)c(F)cc2c1=O
→ 14.0 | 0.4
O=C(CCCCl)N1CCc2[nH]c3ccccc3c2C1
→ 11.0 | ·
O=C(O)c1ccc(-n2cncn2)cc1
→ 5.0 | ·
CC(c1ccccc1)N1C(=O)NC(C(F)(F)F)(C(F)(F)F)C2=C1CC(C)(C)CC2=O (stereo unspecified)
→ -5.0 | 0.5
COc1ccc(C(=O)COC(=O)C2CCC(=O)N2)cc1 (stereo unspecified)
→ -6.0 | ·
NC(=O)c1ccccc1O
→ · | 2.6
Cc1ncc(CC(=O)n2cc(C(=O)c3cc(F)ccc3O)cn2)s1
→ 2.0 | ·
